rRNA inh HTS: reduced GFP signal of wild-type E. coli, primary screen, bacterial rRNA inhibitor project, GFP/RFP fluorescence, OD600, single point. E. coli WT GFP vs humanized-ribosome RFP mutants, 24 h; stronger effect = lower value; DMSO median 0, no signal -100. GFP signal change (wild-type ribosome), % (no concentration beside the values). actives 1.6% (n = 350,000). AID 720706, 2013;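 active means significant combined selectivity score with lowered wild-type GFP, culture density cut under 30%, mutant RFP and density less affected; inactive means any of these conditions unmet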; further: one replicate is shown; some compounds called inactive have numbers as strong as hits
T cruzi inh: inhibitors of intracellular T. cruzi growth, primary screen, luminescence, NIH3T3 host cells | T. cruzi beta-gal in NIH3T3, 90 h | inhibition, % (no concentration beside the values) | actives 1.4% (n = 300,000);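 active means mean inhibition across valid replicates above about 55%, limit read from the data; inconclusive means mean below that limit but half or more replicates reach it; inactive means mean below it, under half of replicates reach it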;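 further: signal also drops with host cell toxicity which is not excluded here; 0% = plate median of DMSO wells and 100% = zero luminescence signal; higher percent means less beta-gal luminescence so fewer parasites; stock transfer was 50 nL into about 50 µL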
Beta apoptosis: inhibitors of cytokine-induced beta cell apoptosis, primary screen, luminescence; AID 435005, 2010; INS-1E cytokine-induced death, ATP luminescence, 48 h; percent of positive-control rescue, neutral wells zero; protection from apoptosis, % (concentration not given with the values); actives 0.8% (n = 300,000);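 active means all replicates at 75% or more, or half of them and the mean; inconclusive means half reach 75% but not the mean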;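 further: 0% = cytokine-treated negative control wells and 100% = positive control rescue; higher means more ATP so stronger rescue from cytokine killing; wells of about 40 µL received 100 nL stock; the first replicate is given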
AF4-AF9 inh: inhibitors of AF4 peptide binding to AF9, primary screen, biochemical, AlphaScreen, biotin-AF4 peptide, FLAG-AF9, single point; AID 651704, 2012; actives 0.47% (n = 350,000); inhibition, % at 10 µM; Protein AF-9 (Homo sapiens), P42568;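 active means every replicate reaching a set inhibition limit, whatever the replicate mean, cut at about 25% in these data; inconclusive means mean inhibition reaches that limit but some replicates miss it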;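 further: 0% = plate neutral control median and 100% = total signal loss; the record names both 10 and 1 µM as test concentration; the first replicate is given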
Target sequence (P42568 whole entry, looked up): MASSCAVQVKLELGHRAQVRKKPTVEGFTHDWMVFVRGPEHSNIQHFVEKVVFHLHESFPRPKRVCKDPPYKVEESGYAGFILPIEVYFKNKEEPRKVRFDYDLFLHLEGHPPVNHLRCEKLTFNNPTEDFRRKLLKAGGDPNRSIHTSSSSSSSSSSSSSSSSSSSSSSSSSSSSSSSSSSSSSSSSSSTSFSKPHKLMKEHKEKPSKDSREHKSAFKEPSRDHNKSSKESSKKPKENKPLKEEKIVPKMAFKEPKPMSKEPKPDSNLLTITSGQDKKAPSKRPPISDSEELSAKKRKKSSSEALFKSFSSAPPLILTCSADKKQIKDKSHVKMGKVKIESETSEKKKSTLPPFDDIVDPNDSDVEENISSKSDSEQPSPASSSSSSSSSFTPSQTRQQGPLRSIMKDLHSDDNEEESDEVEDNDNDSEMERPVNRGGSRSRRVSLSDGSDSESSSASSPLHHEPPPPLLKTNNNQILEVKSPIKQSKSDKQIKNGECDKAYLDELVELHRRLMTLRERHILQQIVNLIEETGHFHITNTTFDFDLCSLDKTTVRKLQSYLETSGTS
A1 inh: caspase 3/7 activation in MEF A1-2A-BIM cells, primary screen, A1 inhibitor project, cell-based, luminescence, HTS. Caspase-Glo 3/7 luminescence, 3 h; percent of clofoctol response, vehicle zero. caspase activation, % (test concentration not listed). actives 0.066% (n = 330,000);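 active means over half of replicate activation scores above 10%, or exactly half above 10 with the replicate mean above 10; inconclusive means replicate mean below 10 yet half the replicates above 10; inactive means over half of replicates below 10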;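 further: wells of about 30 µL received 50 nL stock; many hits fall short of the cut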
RanGTP-Imp inh: inhibitors of RanGTP-importin-beta interaction, primary screen, biochemical, FRET, CFP-Ran, YFP-importin-beta, homogeneous | Ran GTPase (GTP-bound) - importin-beta complex | cell-free CFP-Ran/YFP-importin-beta FRET ratio | inhibition, % (no concentration beside the values) | actives 1.1% (n = 300,000) | AID 2216, 2009;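 active means most replicates above 15%; inconclusive means exactly half above 15%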;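 further: 0% = DMSO wells and 100% = Ran loaded with GDP instead of GTP; wells of about 40 µL received 100 nL stock; the first replicate is given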
Vif TR-FRET: inhibitors of Vif binding to APOBEC3G peptide, primary screen, biochemical, TR-FRET, GST-Vif 1-94, biotin-A3G peptide, dose response retest (AID 1117319); Virion infectivity factor (Human immunodeficiency virus type 1 group M subtype B (isolate …; TR-FRET GST-Vif / biotin-A3G peptide binding; higher % means a stronger effect; test concentration not given here; strong numbers were not always called active; inhibition, %, or IC50 in µM where a hit was titrated; actives 0.57% (n = 260,000);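 active means above the screen mean plus three standard deviations and confirmed in dose response; inconclusive means results disagree or hit not tested in dose response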;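 further: Vif residues 1-94 fused to GST binding biotinylated APOBEC3G peptide 110-148; 0% = full assay without inhibitor and 100% = GST in place of GST-Vif; retest series ran down from 100 µM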
Calb FLC: C. albicans growth inhibition with fluconazole, primary screen, CaCi-2 strain, Alamar Blue fluorescence; growth inhibition, % (concentration not given with the values); C. albicans CaCi-2 (fluconazole-resistant clinical isolate) + fluconazole, 48 h; actives 0.57% (n = 300,000); AID 1979, 2009;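 active means most replicates above 75%; inconclusive means exactly half above 75%; inactive means most below 75%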;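 further: all wells also contain fluconazole at 8 µg/ml as a sub-toxic cotreatment; 0% = median of DMSO wells and 100% = median of geldanamycin control wells; wells of about 8 µL received 7.5 nL stock; the first replicate is given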
rRNA inh HTS OD600: further read-out of rRNA inh HTS, marked with its call; OD600 change, %; measured here: OD600 growth;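 optical density of the mix in the first replicate; 0 = DMSO median and -100 = no signal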
rRNA inh HTS RFP: also measured in rRNA inh HTS; calls as there; RFP signal change, %; measured here: RFP humanized mutant strains;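 first replicate; 0 = DMSO median and -100 = no signal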
Starred values were filed as active, the others as inactive; ? = inconclusive; . = not tested or not shown. An excerpt; count on the stated rates, not on these rows.

SMILES	rRNA inh HTS	rRNA inh HTS OD600	rRNA inh HTS RFP	T cruzi inh	Beta apoptosis	AF4-AF9 inh	A1 inh	RanGTP-Imp inh	Vif TR-FRET	Calb FLC
O=C1N(Cc2cccc(Cl)c2)C[C@@H]2C[C@@H](c3cccc4cccnc34)N3CCC[C@@]123	-6.1	-4.6	4.1	12.2	-1.0	-0.2	0.7	6.5	.	-17.0
CCOc1ccc(S(=O)(=O)NCCC(=O)NCc2ccco2)cc1	.	.	.	-2.2	-0.8	.	-0.9	2.9	24.1%	14.6
CCCn1c(N)c(N2CCCCC2)c(=O)n(CC(=O)Nc2ccc(OC(F)(F)F)cc2)c1=O	.	.	.	19.7	0.7	.	1.1	?	3.3%	14.4
COc1ccccc1C(=O)OCCN=C1NS(=O)(=O)c2ccccc21	1.5	2.2	-1.6	-5.9	-6.0	-13.9	-0.5	-0.5	.	-2.0
CC1CCN(c2nc3ccccc3nc2C(C#N)C(=O)NC2CCCCC2)CC1 (stereo not given)	.	.	.	4.9	-8.8	.	-0.7	49.7*	.	0.0
O=C1CC(N(CCc2ccccc2)C(=S)Nc2ccccc2)C(=O)N1c1ccc(Br)cc1 (stereo not given)	-5.6	-14.4	-8.1	53.4	43.0	5.8	-1.1	2.2	-8.3%	0.5
O=C(Nc1ccccc1F)Nc1ccccc1Br	-2.0	7.2	-1.3	-16.5	20.7	-1.9	-6.0	-3.2	-1.8%	-3.3
Cc1ccc(OCC(=O)Nc2ccc(CN3CCCCC3)cc2)c(C)c1	0.1	7.0	-1.0	2.1	0.6	1.6	-0.1	-1.5	.	37.7
CCn1c(SCC(=O)Nc2cccc(NC(C)=O)c2)nc2c([nH]c3ccccc32)c1=O	10.7	9.0	-0.2	-10.4	.	-0.8	-1.0	5.8	-19.0%	-3.7
CCOC(=O)Cc1cnc(N)s1	21.2	19.5	1.9	-6.2	-6.6	-1.7	-1.0	9.4	.	-11.1
COc1cc(Cl)c(CN2CCC(CCC(=O)NC3CC3)CC2)cc1OC	13.3	7.8	0.9	3.2	.	-4.7	-0.3	?	.	2.3
O=C(COc1cccc(C(F)(F)F)c1)NCC(c1ccco1)N1CCCCC1 (stereo not given)	-7.0	-5.0	6.7	9.6	.	3.7	-0.5	?	0.2%	1.5
CC1=NCCN1CCNC(=O)Nc1ccc(C(C)(C)C)cc1	6.9	3.9	3.1	-6.0	.	2.8	-1.0	1.2	.	4.6
O=C(NCc1cccnc1)c1cc(S(=O)(=O)N2CCCCC2)ccc1Cl	.	.	.	-7.3	-3.5	.	1.4	-0.4	67.7%	-3.9
Cc1cccc(CSCc2ccc(C(=O)NC3CCCC3)o2)c1	10.5	2.7	0.8	17.0	2.3	1.0	0.2	1.5	.	-1.2
COc1ccccc1CNc1ncnc2nc[nH]c12	-0.3	7.4	-0.6	-5.8	.	-2.8	0.0	3.7	22.3%	-2.2
Cc1sc2ncn(Cc3ccccc3F)c(=O)c2c1C	-35.1	-50.2	-4.2	19.5	-4.6	-2.6	0.4	0.3	.	0.8
COc1ccccc1NS(=O)(=O)c1cccc(C(=O)NC2CCN(Cc3ccccc3)CC2)c1	.	.	.	45.2	59.5	.	-1.1	9.0	-1.7%	-14.1
O=C(NCCc1ccncc1)Nc1ccccc1Cl	.	.	.	-19.8	-11.6	.	-0.1	-0.5	82.7%	-1.2
COc1cccc2cc(-c3ccccc3)oc12	-1.3	7.9	-2.4	-17.1	.	-0.5	-1.9	-4.3	.	3.3

Continued, starting with the last two of the part before.
SMILES	rRNA inh HTS	rRNA inh HTS OD600	rRNA inh HTS RFP	T cruzi inh	Beta apoptosis	AF4-AF9 inh	A1 inh	RanGTP-Imp inh	Vif TR-FRET	Calb FLC
O=C(NCCc1ccncc1)Nc1ccccc1Cl	.	.	.	-19.8	-11.6	.	-0.1	-0.5	82.7%	-1.2
COc1cccc2cc(-c3ccccc3)oc12	-1.3	7.9	-2.4	-17.1	.	-0.5	-1.9	-4.3	.	3.3
O=C1Nc2ccc(NS(=O)(=O)c3cccs3)c3cccc1c23	.	.	.	2.5	-2.5	.	0.4	0.1	-4.9%	32.2
CCOC(=O)c1ccccc1NC(=S)N1CCN(C(=O)c2ccco2)CC1	-4.3	-4.4	-1.9	9.9	-0.8	24.6	-0.1	-3.8	.	-3.4
O=c1[nH]c(=S)[nH]c2nc(-c3ccccc3)cnc12	-13.3	-14.4	-2.0	2.4	-7.8	-1.6	1.1	3.3	.	3.4
COc1ccc(NC2=CC(c3ccc(OC)cc3)N(c3ccc(OC)cc3)C2=O)cc1 (stereo not given)	-4.0	2.4	-1.5	29.2	-3.0	-0.5	0.9	0.5	-0.2%	6.2
COc1cc(/C=N/NC(=O)c2cccc3ccccc23)cc(OC)c1OC	-3.3	-1.6	-0.6	-0.9	1.2	0.2	-0.2	4.8	-6.0%	-3.1
COc1ccc(CCNC(=O)C(=O)NCC2CCCN2S(=O)(=O)c2cc(C)ccc2C)cc1 (stereo not given)	-25.9	-26.4	-3.0	1.8	2.2	0.5	-1.8	0.7	-3.2%	-6.7
CCC(=O)NC1=C(C#N)C2(CCCC2)Cc2ccccc21	.	.	.	-13.7	3.3	.	-0.1	2.9	1.9%	1.0
CC(=O)N1CCN(C(=S)c2ccc(-c3ccc(Cl)cc3)o2)CC1	.	.	.	6.2	4.2	.	-2.3	-0.6	10.4%	-4.9
O=C1/C(=C/N(C(=O)c2ccco2)c2ccc(Cl)cc2)Sc2ccccc21	.	.	.	2.2	-2.8	.	-7.1	9.8	-1.6%	33.3
CC(C)C[C@H](NC(=O)c1nc[nH]c1C(=O)N1CCc2ccccc2C1)C(=O)OC(C)(C)C	-4.2	-18.0	11.2	1.5	1.1	3.8	0.8	-4.1	-2.4%	-5.5
O=C(O)CCn1cc(/C=C/C(=O)c2ccc(Cl)cc2)c(-c2cccc(Br)c2)n1	-48.1	-55.0	-6.3	-10.9	-5.7	-7.1	-0.6	-1.5	22.3%	54.7
CCOc1ccc2nc(NC(=O)NC3CCCCC3)sc2c1	8.8	11.2	0.9	40.3	0.8	-1.1	0.7	7.0	.	31.9
CCOC(=O)c1ccc(NC(=O)C(C)Sc2nc(O)c(-c3ccccc3)c(=O)[nH]2)cc1 (stereo not given)	1.2	12.2	-1.1	3.3	5.5	-1.7	-0.2	5.7	-1.9%	6.2
O=C(Cc1ccccc1[N+](=O)[O-])NCc1ccco1	8.8	19.0	2.1	-9.4	-12.5	-1.0	0.7	-0.6	0.7%	-5.1
CSCc1nnc(NC(=O)c2ccc(S(=O)(=O)N(C)C)cc2)o1	-22.3	-19.6	-4.7	-3.1	4.8	1.6	-1.0	-5.1	-14.4%	-11.2
CCOc1cc(/C=C2/C(=O)NN(c3cccc(Cl)c3)C2=O)ccc1O	-22.4	-20.0	1.4	-0.7	-3.7	-24.5	0.7	-1.7	6.4%	-2.5
Cc1cc(N/C(=N\S(=O)(=O)c2ccc(F)cc2F)c2ccccc2)no1	.	.	.	-4.1	-3.9	.	0.0	0.0	7.0%	9.2
CC(=O)c1cc(CN2CCN(CCC(C)C)C(CCO)C2)cs1 (stereo not given)	5.7	13.6	-4.5	4.2	-7.4	9.1	0.1	0.6	10.3%	-27.3
COC(=O)COc1cccc2c(=O)n(CC(=O)NCCc3ccc(OC)c(OC)c3)ccc12	7.4	1.3	-2.5	-2.7	-0.9	-2.7	-0.8	1.0	.	1.7
CCc1ccc(CN2CCC(n3nccc3NC(=O)c3ccc4c(c3)OCO4)CC2)cc1	4.0	5.7	3.4	37.3	-1.9	3.0	-1.1	5.6	.	-5.2
CCc1cc(C(=O)Cc2ccc(F)cc2)c(O)cc1O	-44.5	-64.8	-22.6	-15.8	-2.8	-1.6	-0.4	0.6	.	-38.9
COc1ccc(-c2nnc(SC)n2C)cc1	.	.	.	-14.9	-5.8	.	-0.5	-4.9	-3.2%	-1.7
COc1ccccc1/C=C/C(=O)N1CCc2cc(OC)c(OC)cc2C1C (stereo not given)	-31.0	-32.1	-1.5	-1.3	.	-8.9	-0.2	1.0	.	8.2
COc1ccc(NC(=O)CSc2nnnn2C2CCCC2)c(OC)c1	1.8	-7.4	-0.1	1.6	.	0.6	.	-1.6	.	-3.3
O=C(CSc1nnc(CNC(=O)c2ccccc2)o1)NCCc1ccccc1	4.0	5.6	0.3	5.5	-1.4	-0.9	-1.0	5.9	-0.3%	2.1
COc1cc(C2NC(=O)NC(O)(C(F)(F)F)C2C(C)=O)cc(OC)c1OC (stereo not given)	9.4	5.7	7.6	-9.9	-7.1	-1.7	-0.5	0.0	29.8%	0.9
CC(=O)Nc1nnc(SCc2ccc(F)cc2)s1	.	.	.	6.9	-1.3	.	0.6	-4.5	0.5%	-5.3
Cc1ccc(N2CC(C(=O)Nc3ccccc3C(=O)NC3CCCCC3)CC2=O)cc1C (stereo not given)	.	.	.	7.7	3.2	.	0.7	-0.8	5.4%	2.6
COc1cc(OC)cc(-c2cc3nc(C)c(CCC(=O)NCc4ccccc4)c(C)n3n2)c1	-7.6	-4.1	-2.7	31.7	5.2	4.2	1.7	2.2	6.2%	13.5
CCOc1ccc(CCNC(=O)COC(=O)c2cccc(S(=O)(=O)N3CCOCC3)c2)cc1OCC	2.2	-1.6	-1.8	-2.2	-2.7	4.1	-0.2	7.8	-1.7%	7.3
O=C(Cc1cccs1)NNC(=S)NCc1ccc(Cl)cc1	.	.	.	9.9	0.8	.	-0.5	3.8	-6.6%	1.4
CCOC(=O)C1CCN(c2ncnc3c2c(-c2ccccc2)cn3-c2ccccc2)CC1	-2.1	2.3	10.0	59.1*	16.6	6.2	-0.6	-3.9	-0.7%	-2.3
COc1ccc(C2c3c(ncn(CCCO)c3=N)Oc3ccc4ccccc4c32)cc1OC (stereo not given)	-18.4	-16.9	4.0	12.0	.	10.1	1.1	-0.2	?	16.2
CC(NC(=O)c1ccc(N2CCNCC2)c([N+](=O)[O-])c1)C12CC3CC(CC(C3)C1)C2 (stereo not given)	.	.	.	-7.1	9.6	.	0.0	3.7	.	-9.5
Nc1c(C(=O)NCCN2CCOCC2)c2nc3ccccc3nc2n1-c1ccccc1	.	.	.	-9.6	.	.	0.1	80.6*	20.9%	11.4
